YB-1 expr inh – YB-1 expression inhibition. delta delta Cp (YB-1 minus CDIP) (no concentration beside the values). U2OS, qRT-PCR YB-1 vs CDIP delta delta Cp, 16 h; hits give high values; zero = DMSO, each unit about twofold. 30,000 tested, 0.37% active;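 active = delta delta Cp rounded down to an integer at or above 3, about 3 SD of DMSO wells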;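 also: higher means less YB-1 transcript or more CDIP transcript relative to DMSO; stock transfer was 100 nL into about 100 µL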
Shh pathway inh – Sonic Hedgehog pathway inhibition | Shh-LIGHT2 Gli-luciferase reporter, 30 h | inhibition, % (concentration not given with the values) | 22,000 tested, 2.1% active | AID 2313;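 active = replicate mean of 65% or more; inconclusive = mean lower but half the replicates past it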;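 also: pathway switched on by Shh-conditioned medium diluted 1 in 25 in low serum; 100 nL library stock added to about 40 µL; 0% = median of neutral wells and 100% = positive control level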
MITF inhib – blocks MITF activity. TRPM1 promoter luciferase, luminescence, 24 h. inhibition, % (no concentration beside the values). 37,000 tested, 0.28% active;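 active = most replicates at 85% or more, or half of them and the mean; inconclusive = half reach 85% but not the mean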;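 also: human melanocyte line stably carrying TRPM1 promoter luciferase reporter; 0% = vehicle wells and 100% = a positive control; the first replicate is given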
PD-1 reverse act – activators reversing PD-1 mediated T-cell inhibition. primary human CD4 T cells, PD-L1 beads, CellTiter-Glo 96 h. 29,000 tested, under 10 active. activation, % (concentration not given with the values). AID 2316;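 active = replicate mean of 50% or more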;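 also: 0% = median vehicle wells and 100% = positive control; 100 nL library stock added to about 50 µL; numbers are from one replicate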
An asterisk follows results filed as active; ? = inconclusive; . = not tested or not shown. Some of the compounds tested, so the mix of outcomes need not match the whole.

molecule	YB-1 expr inh	Shh pathway inh	PD-1 reverse act	MITF inhib
CCn1c(SCC(=O)Nc2ccc(C)cc2Br)nnc1-c1ccc(Cl)cc1	.	.	-0.5	13.2
CN1CCC(N(C)Cc2ccc(-c3ccccc3[N+](=O)[O-])o2)CC1	.	.	-1.3	1.5
COc1ccc(S(=O)(=O)NCc2ccccn2)cc1I	.	.	1.6	-12.8
C[C@H]1CN([C@@H](C)CO)C(=O)c2cccc(NC(=O)C3CC3)c2O[C@H]1CN(C)C(=O)NC1CCCCC1	0.226	-29.5	0.6	1.5
Cc1ccc(C)c(NC(=O)Cn2nc([N+](=O)[O-])c(Br)c2C)c1	.	.	-1.6	12.7
C[C@H](CCC(=O)O)[C@H]1CC[C@H]2[C@@H]3C(=O)C[C@@H]4CC(=O)CC[C@]4(C)[C@H]3CC(=O)[C@]12C	0.342	-10.4	-1.1	13.4
COc1cccc(C(=O)Nc2sc3c(c2C(=O)NCc2cccnc2)CCCC3)c1	.	.	-0.4	3.5
Cc1noc(C)c1NC(=O)Nc1ccc2c(c1)CC(=O)N([C@H](C)CO)C[C@@H](C)[C@@H](CN(C)Cc1ccncc1)O2	-0.309	34.6	0.5	5.6
CC(C)NC(=O)N(C)C[C@H]1Oc2c(NS(=O)(=O)c3ccccc3)cccc2C(=O)N([C@@H](C)CO)C[C@H]1C	0.0752	-16.1	1.9	7.5
CNC[C@H]1Oc2ccc(NC(=O)NC(C)C)cc2C(=O)N([C@@H](C)CO)C[C@@H]1C	.	.	0.6	-1.8
C[C@@H]1CN([C@H](C)CO)C(=O)Cc2cc(N(C)C)ccc2O[C@H]1CN(C)Cc1ccc(-c2ccccc2)cc1	-0.179	-30.5	-6.5	-2.5
CCOc1nc2cccc(C(=O)OC(C)OC(=O)OC3CCCCC3)c2n1Cc1ccc(-c2ccccc2-c2nn[nH]n2)cc1 (stereo not given)	0.199	12.6	.	29.0
Cc1noc(C)c1NC(=O)Nc1cccc2c1O[C@@H](CN(C)C(=O)Nc1ccc(F)cc1)[C@H](C)CN([C@H](C)CO)C2=O	-0.764	-7.9	1.9	-0.6
Cc1ccc(S(=O)(=O)N(C)C[C@@H]2Oc3ccc(NS(=O)(=O)c4ccc(F)cc4)cc3C(=O)N([C@@H](C)CO)C[C@@H]2C)cc1	-0.69	.	-5.1	11.8
C[C@@H]1CCCCO[C@H](CN(C)C(=O)Nc2ccccc2)[C@@H](C)CN([C@H](C)CO)C(=O)c2cc(NS(=O)(=O)c3ccccc3)ccc2O1	0.255	.	.	-12.2
C[C@@H]1CN([C@H](C)CO)C(=O)c2cccc(NS(=O)(=O)c3ccccc3)c2O[C@H]1CN(C)Cc1ccc(C(F)(F)F)cc1	-0.214	18.8	.	-17.4
COc1ccc(C(=O)c2ccccc2)cc1CN1CCOCC1	0.0654	4.5	-0.5	-17.4
COc1ccc(C2C(C(=O)Nc3cc(OC)c(Cl)cc3OC)=C(C)Nc3ncnn32)c(OC)c1 (stereo not given)	.	.	-3.9	-0.1
COC(=O)c1cc(OC)c(OC)cc1NC(=O)Cn1nnc(-c2ccccc2Cl)n1	.	.	2.7	11.4
C[C@@H]1CCCCO[C@H](CN(C)S(=O)(=O)c2cn(C)cn2)[C@@H](C)CN([C@H](C)CO)C(=O)c2cc(NC(=O)Cc3ccccc3)ccc2O1	-0.0832	?	0.6	-18.2
C[C@H](CO)N1C[C@H](C)[C@H](CN(C)C)Oc2ccc(NS(=O)(=O)c3ccc(Cl)cc3)cc2C1=O	0.301	.	.	-1.8
COc1ccc(NC(=O)Nc2ccc3c(c2)CC(=O)N([C@@H](C)CO)C[C@@H](C)[C@@H](CN(C)S(=O)(=O)c2cccs2)O3)cc1	0.151	30.4	.	7.1
C[C@@H]1CN([C@H](C)CO)C(=O)c2cccc(NC(=O)C3CCCCC3)c2O[C@@H]1CN(C)Cc1ccncc1	-0.12	-34.9	1.4	-8.5
C[C@@H]1CN([C@H](C)CO)C(=O)Cc2cc(NC(=O)Nc3cccc4ccccc34)ccc2O[C@@H]1CN(C)S(=O)(=O)c1ccccc1	0.0191	8.7	0.6	1.5
C[C@H]1CN([C@@H](C)CO)C(=O)Cc2cc(NC(=O)Cc3ccccc3)ccc2O[C@@H]1CN(C)C(=O)Nc1ccc(F)cc1	0.326	-19.5	.	-18.1
C[C@@H]1CN([C@H](C)CO)C(=O)Cc2cc(NS(=O)(=O)c3cccs3)ccc2O[C@H]1CN(C)S(=O)(=O)c1ccc(Cl)cc1	0.0585	-26.3	2.1	-2.9
C[C@H](CO)N1C[C@H](C)[C@@H](CN(C)S(=O)(=O)c2ccc(Cl)cc2)Oc2ccc(NC(=O)CCN3CCOCC3)cc2C1=O	-0.105	-9.0	.	4.4
CCOC(=O)CN1C(=O)C2(C(C#N)=C(N)Oc3n[nH]c(C)c32)c2ccccc21 (stereo not given)	0.435	-40.3	3.6	-15.5
CC(NC(=O)c1ccccc1NC(=O)C1COc2ccccc2O1)c1ccccc1 (stereo not given)	.	.	-3.4	-31.3
O=C(CC1(O)C(=O)N(Cc2ccccc2)c2ccc(Cl)cc21)c1ccncc1 (stereo not given)	.	.	-5.1	15.9

2 consecutive records out of the list so far, quoted:
molecule	YB-1 expr inh	Shh pathway inh	PD-1 reverse act	MITF inhib
CC(NC(=O)c1ccccc1NC(=O)C1COc2ccccc2O1)c1ccccc1 (stereo not given)	.	.	-3.4	-31.3
O=C(CC1(O)C(=O)N(Cc2ccccc2)c2ccc(Cl)cc21)c1ccncc1 (stereo not given)	.	.	-5.1	15.9

Next compounds:
molecule	YB-1 expr inh	Shh pathway inh	PD-1 reverse act	MITF inhib
Cc1ccc(S(=O)(=O)Nc2ccc3c(c2)CC(=O)N([C@@H](C)CO)C[C@@H](C)[C@@H](CN(C)S(=O)(=O)c2ccc(C)cc2)O3)cc1	0.0537	-62.6	-0.5	0.9
C[C@@H]1CN([C@@H](C)CO)C(=O)c2cc(NS(=O)(=O)c3ccc(F)cc3)ccc2O[C@@H]1CN(C)S(C)(=O)=O	0.249	.	0.7	-5.0
C[C@@H]1CCCCO[C@H](CN(C)C(=O)CCCN(C)C)[C@@H](C)CN([C@H](C)CO)C(=O)c2cc(NC(=O)Nc3ccccc3)ccc2O1	-0.418	-1.8	0.1	-17.4
C[C@H](CO)N1C[C@H](C)[C@H](CN(C)Cc2ccc(C(F)(F)F)cc2)Oc2ccc(NC(=O)Cn3cnnn3)cc2C1=O	-0.17	.	.	-9.1
C[C@H]1CN([C@@H](C)CO)C(=O)Cc2cc(NS(=O)(=O)c3ccc(Cl)cc3)ccc2O[C@@H]1CN(C)CC1CCCCC1	-0.174	29.9	.	24.2
CC1OC(OC(=O)C2=CC3(O)CC(C)(C)CC34C(C)CCC24)C(O)C(O)C1O (stereo not given)	0.366	-15.3	2.8	8.1
COc1ccc(S(=O)(=O)Nc2ccc3c(c2)CC(=O)N([C@H](C)CO)C[C@@H](C)[C@H](CN(C)CC2CCCCC2)O3)cc1	0.327	-15.7	1.3	-6.3
C[C@H](CO)N1C[C@H](C)[C@H](CN(C)Cc2ccc(-c3ccccc3)cc2)Oc2ccc(NC(=O)C3CC3)cc2CC1=O	-0.821	-3.4	-2.9	-1.6
COc1ccc(Cn2c3ccc(Br)cc3c3nc4ccccc4nc32)cc1OC	.	.	-2.9	19.5
CCOCCCNc1nc2c([nH]1)c(=O)n(C)c(=O)n2C	.	.	0.2	-27.0
COc1ccc(NC(=O)N(C)C[C@H]2Oc3ccc(NS(=O)(=O)c4cccs4)cc3C(=O)N([C@@H](C)CO)C[C@H]2C)cc1	0.0536	.	-1.3	-5.8
C[C@@H]1CN([C@H](C)CO)C(=O)Cc2cc(NC(=O)CCCCCC(=O)Nc3ccccc3N)ccc2O[C@H]1CN(C)CC1CC1	-0.13	.	-0.5	-38.2
C[C@H]1CN([C@@H](C)CO)C(=O)Cc2cc(NC(=O)Nc3ccc(F)cc3)ccc2O[C@@H]1CN(C)C(=O)Nc1ccc2c(c1)OCO2	-0.38	.	-0.6	6.1
O=C(Nc1ccc(Cl)cc1)c1sc2ccccc2c1Cl	-0.0818	.	0.1	-10.4
CC1=CS(=O)(=O)CC1SC(=S)NC(C)C (stereo not given)	0.224	7.4	-1.0	-1.4
C[C@@H]1CN([C@@H](C)CO)C(=O)Cc2cc(NS(=O)(=O)c3cccs3)ccc2O[C@@H]1CN(C)Cc1ccc(-c2ccccc2)cc1	0.0386	17.5	.	-10.4
C[C@H](CO)N1C[C@H](C)[C@@H](CN(C)Cc2ccc(C(F)(F)F)cc2)Oc2c(NS(=O)(=O)c3cccs3)cccc2C1=O	0.409	5.4	1.5	-1.9
O=C(CCCCn1cnc2ccccc21)c1ccccc1	-0.308	-10.1	-2.1	46.1
C[C@H]1CN([C@@H](C)CO)C(=O)c2cc(NC(=O)CCCCCC(=O)Nc3ccccc3N)ccc2O[C@@H]1CN(C)C(=O)Nc1cccc2ccccc12	0.0728	.	0.3	3.9
COC(=O)c1c(O)cc(C)cc1Oc1c(O)cc(OC)cc1CO	0.82	10.9	-1.1	-8.7
Cc1cccc(OCC(=O)NC(=S)Nc2ccc(C)cc2O)c1	.	.	-11.1	30.1
C[C@@H]1CN([C@@H](C)CO)C(=O)c2cccc(NS(C)(=O)=O)c2O[C@H]1CN(C)C(=O)Nc1cccc2ccccc12	0.0155	35.0	.	10.0
C[C@@H]1CN([C@H](C)CO)C(=O)c2cccc(NC(=O)NC3CCCCC3)c2O[C@@H]1CN(C)S(=O)(=O)c1ccccc1	0.0172	-6.0	-1.0	3.3
CCN(CC(=O)O)S(=O)(=O)c1ccc(Cl)cc1	.	.	-0.1	-17.4
COc1ccc2ccccc2c1-c1c(OC)ccc2ccccc12	0.0155	.	1.2	3.9
COc1cc(Cl)cc(C(=O)O)c1OCC(=O)O	.	.	2.1	-3.6
C[C@@H]1CN([C@@H](C)CO)C(=O)Cc2cc(NC(=O)NC3CCCCC3)ccc2O[C@@H]1CN(C)C(=O)Nc1ccc(F)cc1	-0.0427	.	-0.6	5.0
Cc1noc(C)c1NC(=O)N(C)C[C@@H]1Oc2ccc(NC(=O)CCCCCC(=O)Nc3ccccc3N)cc2C(=O)N([C@H](C)CO)C[C@@H]1C	0.0241	.	3.0	2.1
Cc1cccc(OCCn2c(C(C)O)nc3ccccc32)c1 (stereo not given)	.	.	0.2	-6.2
C[C@@H]1CN([C@H](C)CO)C(=O)Cc2cc(NC(=O)CCCCCC(=O)Nc3ccccc3N)ccc2O[C@H]1CN(C)S(=O)(=O)c1cn(C)cn1	0.0042	.	3.2	-24.6
CC1(C)CC(=O)C2=C(C1)NC1=C(C(=O)c3ccccc31)C2c1ccc(OC(=O)CN2C(=O)C3CCCCC3C2=O)cc1 (stereo not given)	.	.	1.5	5.1
O=C(NCc1ccco1)c1cc([N+](=O)[O-])ccc1Sc1nc2ccccc2[nH]1	.	.	-1.0	17.8
COc1ccc(S(=O)(=O)N(C)C[C@H]2Oc3ccc(NC(=O)Cc4ccccc4)cc3C(=O)N([C@@H](C)CO)C[C@H]2C)cc1	0.128	7.5	-0.8	-9.4
CCCCOc1ccc(OCCCN2CCOCC2)cc1	0.14	21.7	.	-15.6
Cc1ccc(OCCSc2nc(C)cc(=O)[nH]2)c(I)c1	.	.	0.9	-72.0
CN(CC(=O)Nc1ccc(Cl)cc1)S(=O)(=O)c1ccccc1	.	.	-0.1	-4.4
CC(Oc1ccc(Cl)cc1Cl)C(=O)Nc1cccc(-c2nc3ccccc3o2)c1 (stereo not given)	.	.	-0.1	-48.2
CS(=O)(=O)N(CC(=O)O)c1cccc(Cl)c1	.	.	1.2	-25.8
COc1ccc(NC(=O)N(C)C[C@H]2Oc3c(NC(=O)Nc4cccc5ccccc45)cccc3C(=O)N([C@H](C)CO)C[C@@H]2C)cc1	0.0385	11.4	-1.5	-1.9
C[C@H](CO)N1C[C@H](C)[C@H](CN(C)S(=O)(=O)c2ccc(F)cc2)Oc2ccc(NC(=O)C3CCCCC3)cc2C1=O	0.0786	.	-1.0	3.5
Cc1ccc(S(=O)(=O)Nc2cccc3c2O[C@H](CN(C)S(=O)(=O)c2cn(C)cn2)[C@H](C)CN([C@H](C)CO)C3=O)cc1	-0.393	21.4	2.2	0.7
COc1ccc(OC)c(S(=O)(=O)c2ccc(Br)cc2)c1	-0.108	-29.0	0.6	2.2
Cc1ccc(S(=O)(=O)Nc2ccc3c(c2)CC(=O)N([C@H](C)CO)C[C@@H](C)[C@@H](CN(C)C)O3)cc1	-0.394	-8.9	2.7	-5.1
C[C@@H]1CN([C@H](C)CO)C(=O)Cc2cc(NC(=O)Nc3ccc(C(F)(F)F)cc3)ccc2O[C@H]1CN(C)CC1CC1	-0.0203	-7.6	2.6	-5.6

Screening data (PubChem)
